PrP 5UTR inh: suppresses PrP 5' UTR mRNA reporter expression | cell-based PrP 5' UTR mRNA reporter, plate reader | inhibition, % (no concentration beside the values) | 0.35% of 340,000 active | AID 488862;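 active = every replicate at 50% or more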;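 also: 0 = median of the neutral control wells; tested in H4 reporter cells; numbers are from one replicate; inactives centre near -14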
ugtP null kill: compounds lethal to S. aureus RN4220 ugtP deletion mutant; 0.54% of 330,000 active; growth inhibition, % (concentration not given with the values); OD600 growth, 16 h; some inactives read as strong as hits;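 active = z-score under -3 and OD600 up to 0.15 on both plates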;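 also: plate controls were untreated wells for no effect and antibiotic for full effect; wells of about 80 µL received 100 nL stock; the first replicate is given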
Mtb hypoxia inh: Mtb hypoxia fluorescent reporter inhibition | 0.1% of 300,000 active | M. tuberculosis hypoxia-regulated fluorescent reporter, fluorescence | fluorescence inhibition, % (test concentration not listed);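 active = 35 to 45% if threefold the growth effect, above 45% if 1.5-fold the growth effect; inactive = the rest, general growth blockers included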;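 also: wells of about 50 µL received 100 nL stock; 0% = vehicle wells and 100% = reference inhibitor wells; whole bacteria with a GFP reporter of the hypoxia response; strong numbers were not always called active; many hits fall short of the cut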
RN4220 kill: S. aureus RN4220 growth inhibition; 0.33% of 330,000 active; inhibition, % (concentration not given with the values); OD600, 16 h;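 active = z-score of -3 or lower and OD600 up to 0.18 on both plates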;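 also: plate controls were untreated cells for no effect and reference antibiotic for full effect; stock transfer was 100 nL into about 80 µL; one replicate is shown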
Bead autofluor: counter-screen for toxin protease inhibitors: compound fluorescence; compound autofluorescence counterscreen, microsphere flow cytometry; hits give high values; fluorescence intensity (test concentration not listed); 3.1% of 360,000 active; AID 624483;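 active = at least 3 SD above the mean of all compounds, about 16000 in these data; inconclusive = too few beads counted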;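 also: 100 nL of 1 mM stock went into each well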
BJeLR viability: BJeLR cell viability loss. BJeLR (HRASV12) viability, CellTiter-Glo ATP luminescence, 48 h; reference of the scale not given here. inhibition, % (test concentration not listed). 0.17% of 300,000 active;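 active = replicate mean above 50%; inconclusive = above 50% but judged a plate artefact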;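 also: 50 nL library stock added to about 25 µL; numbers are from one replicate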
Mtb hypoxia inh growth: further read-out of Mtb hypoxia inh, marked with its call; growth inhibition, %; measured here: M. tuberculosis growth (absorbance);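 0% = vehicle and 100% = reference antibiotic; read after six days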
Numbers without * were called inactive; i = inactive; ? = inconclusive; . = not tested or not shown.

Fields – PrP 5UTR inh	ugtP null kill	Mtb hypoxia inh	Mtb hypoxia inh growth	RN4220 kill	Bead autofluor	BJeLR viability
> Cc1ccc(C=NNC(=O)CNC(=O)COc2ccccc2)o1
 : .	9.8	6.6	-1.3	1.7	.	.
> Cc1cccc(NC(=O)c2nc[nH]c2C(=O)NCCCCNC(=O)c2[nH]cnc2C(=O)Nc2cccc(C)c2)c1
 : -11.7	3.5	7.8	8.5	51.2	3987	.
> Cn1c(=N)n(CC(O)c2ccco2)c2ccccc21 (stereo not drawn)
 : 3.5	1.2	9.6	15.2	1.9	5298	-0.8
> O=C(Nc1ccccc1)c1cc2ccccc2s1
 : -166.6	-1.0	18.9	6.1	5.4	3767	.
> CNC(=O)c1c(NC(=O)C2=COCCO2)sc2c1CCC(C)C2 (stereo not drawn)
 : -17.0	-1.4	14.1	5.8	0.5	5662	3.8
> COC(=O)Cn1c(=NC(=O)CSCC(=O)Nc2cc(C)on2)sc2ccccc21
 : -8.2	1.7	7.6	9.4	-12.0	6560	-0.8
> O=C(CNC(=S)N(CCCN1CCOCC1)Cc1cccs1)N1CCCCCC1
 : -17.6	-6.5	-11.1	5.9	0.0	3206	.
> CCN(CC)S(=O)(=O)c1ccc(C)c(NC(=O)CSc2nc3ccc(C)cc3[nH]2)c1
 : -82.3	-6.9	2.3	3.6	2.1	3313	1.9
> NC(=O)c1cc2ccccc2o/c1=N\NC(=O)c1ccccc1O
 : -1.9	.	.	.	.	3178	6.6
> COc1cccc(NC(=O)Nc2ccc3c(c2)nnn3C)c1
 : -66.2	-5.1	.	.	2.7	3678	.
> CC1(C)NC(=O)N(CC(=O)N2CCN(c3cccc(Cl)c3)CC2)C1=O
 : -18.6	7.6	3.2	3.9	4.6	9108	.
> CCCOc1ccc(N/C=C/C(=O)c2cc(OC)c(OC)c(OC)c2)cc1
 : -31.1	-7.6	5.4	-2.0	1.6	3771	-5.5
> Cc1cnc(C(=O)N(CC(C)C)c2c(N)n(CC(C)C)c(=O)[nH]c2=O)cn1
 : -27.6	-1.4	-8.3	5.4	-0.5	.	.
> C=CCNc1ncnc2sc(SC)nc12
 : -1.2	0.7	8.5	5.6	0.5	5330	-11.2
> CCNC(=S)NNC(=O)c1ccccc1OC(F)F
 : -6.4	3.5	1.2	5.5	1.9	11146	11.5
> O=C(OCC(=O)N1CCN(c2ccccc2)CC1)c1cccc([N+](=O)[O-])c1
 : -17.2	4.8	-10.0	-10.1	1.5	6309	0.2
> CCOCCCNCC(=O)NCC1CCCCC1
 : -21.6	6.9	.	.	0.6	3965	-0.5
> CCOc1cc(C=Nn2cnnc2)ccc1OC(=O)c1cccc([N+](=O)[O-])c1
 : .	0.2	10.9	-0.8	10.3	.	.
> O=c1[nH][nH]c(C(F)(F)F)c1/C=N/N1CCOCC1
 : -13.1	.	.	.	.	2544	-0.9
> Cc1ccc(-c2cc(C(=O)Nc3nn[nH]n3)c3ccccc3n2)cc1
 : -15.5	6.6	9.3	5.5	7.0	11370	17.5
> Cc1ccc(CN2C(CC(C)C)COCCS2(=O)=O)cc1 (stereo not drawn)
 : .	-1.8	2.4	0.0	10.9	.	.
> C=CCSc1nc(C)cc(C(=O)OCC)c1C#N
 : -29.4	3.7	3.4	5.9	1.8	6500	-3.4
> CCNc1sc(S(C)(=O)=O)nc1S(=O)(=O)c1ccc(Cl)cc1
 : -12.5	3.7	17.1	4.2	3.7	3987	3.0
> COc1cc(/C=N/Nc2nc(Nc3ccccc3)nc(N3CCCCC3)n2)ccc1OCC(=O)O
 : -12.6	.	.	.	.	2278	-0.4
> Cc1c(C)n2c(SCC(=O)N3CCCCCC3)nnc2[nH]c1=O
 : -1.3	-0.8	-10.3	5.9	0.2	5723	2.7
> CSc1nc(-c2ccc(C)cc2)nc(C(Cl)Cl)n1
 : 1.2	2.0	78.4*	41.5*	1.1	9308	-2.5
> CCCc1cc(=O)oc2c(C)c(OCC(=O)NCc3ccccn3)ccc12
 : -10.8	4.4	5.3	4.3	5.3	5169	-8.4
> COc1ccc2ccccc2c1C=NN1C(=O)CSC1=S
 : .	16.9	17.9	19.5	1.6	.	.
> COC(=O)C1=C(c2ccc3ccccc3c2)CC2CCC1N2C(=O)NCc1ccc(F)cc1 (stereo not drawn)
 : .	12.0	7.2	-11.7	-5.2	.	.
> CC(C)C(=O)Nc1sc2c(c1-c1nc3ccccc3[nH]1)CCCC2
 : -33.6	-16.2	-8.8	-2.3	-9.5	3033	-5.4

The listing continues:
Fields – PrP 5UTR inh	ugtP null kill	Mtb hypoxia inh	Mtb hypoxia inh growth	RN4220 kill	Bead autofluor	BJeLR viability
> Cc1ccc(NC(=O)CSc2ccc(C(N)=O)cc2[N+](=O)[O-])cc1C
 : -19.5	-4.9	2.2	16.9	-4.7	2140	6.4
> CC(C)[C@H](NC(N)=O)C(=O)Nc1ccc(Oc2ccccc2)cc1
 : -13.0	0.7	-4.7	0.4	-4.8	3673	-0.9
> CS(=O)(=O)c1sc(C#N)c2c1C(=O)CC(c1ccccc1)C2 (stereo not drawn)
 : 1.5	.	.	.	.	2860	5.7
> c1ccc(CCOn2ccnc2)cc1
 : -10.2	6.7	10.8	8.5	5.1	3105	-8.7
> O=S1(=O)CCOCCN1Cc1ccccc1
 : -5.0	-3.9	14.8	5.7	-14.3	3767	8.6
> O=C(NCC1COc2ccccc2O1)c1ccccc1 (stereo not drawn)
 : -52.7	3.6	14.1	13.4	-1.5	8137	4.9
> O=C(NCc1ccc2c(c1)OCO2)c1ccc(COc2cc(Cl)ccc2Cl)o1
 : -22.4	-15.7	-3.0	-3.6	-6.0	18111*	-6.8
> Cc1ccc(NC(=O)CSCC(=O)Nc2ccccc2C(=O)NC2CC2)cc1
 : -11.7	3.1	3.3	1.5	2.1	?	.
> COCCCNC(=S)Nc1ccc2nc(N3CCOCC3)cc(C)c2c1
 : -7.9	1.4	-12.8	1.8	4.9	2922	0.2
> Cc1ccc(S(=O)(=O)N(C)C)cc1NC(=O)CN1C(=O)NC2(CCCCCC2)C1=O
 : -21.2	4.5	2.3	-5.1	1.6	6659	3.8
> CCc1cc(=O)oc2cc(OCC(=O)N3CCCc4ccccc43)ccc12
 : -7.1	1.5	8.4	0.6	-0.8	12401	-2.8
> COc1ccccc1C(CNC(=O)C1CCN(C(=O)Nc2ccccc2)CC1)N1CCCC1 (stereo not drawn)
 : -19.2	5.1	1.2	-4.4	1.7	7895	.
> Cc1cc(C)c2c(c1)OC(=O)CC2c1ccc2c(c1)OCO2 (stereo not drawn)
 : 43.5	14.3	1.9	5.2	1.3	3469	.
> CCCCCC(=O)NC(CC(=O)OC)c1ccc2c(c1)OCO2 (stereo not drawn)
 : -45.0	0.3	-15.5	2.9	1.8	3839	-2.3
> CC(=O)Oc1ccc2c(c1)Oc1cc(OC(C)=O)ccc1C21OC(=O)c2ccccc21
 : -27.4	0.0	i	30.8	0.6	17180*	.
> Cc1ccc(C)c(OCC(=O)N(Cc2ccccc2)c2c(N)n(Cc3ccccc3)c(=O)[nH]c2=O)c1
 : -9.2	-1.0	1.0	1.6	0.7	2969	.
> COc1cc(OC)cc(-c2nc3ccccc3c(=O)n2OC(=O)c2ccccc2C)c1
 : -18.1	2.9	0.9	4.1	4.8	2357	2.1
> Cn1c2ccccc2n2c(=O)cc(-c3ccccc3)c(C#N)c12
 : -37.8	8.3	18.1	0.5	6.0	3691	10.3
> COc1ccc(N(CC(=O)NC2CCCC2)S(=O)(=O)c2ccc(NC(C)=O)cc2)cc1
 : -11.3	4.0	2.2	-0.4	5.7	4053	-0.3
> CC1=C(C(=O)Nc2ccccc2)C(c2cccnc2)n2ncnc2N1 (stereo not drawn)
 : -9.4	7.0	10.5	-2.3	6.2	2026	-8.0
> COc1ccc(OC)c(NC(=O)CCOc2cccc(C)c2)c1
 : -3.5	0.3	-9.3	3.1	-3.0	4613	-8.3
> CCCC1CC(C)(c2csc(Nc3ccc(OCC)cc3)n2)OC1=O (stereo not drawn)
 : -12.9	-4.7	.	.	-6.2	11400	5.8
> CC(C)(C)Nc1nc(Cl)nc(NCc2ccccc2)n1
 : -4.2	-19.1	10.2	6.9	-0.6	4126	-7.7
> CC(C)Cc1csc(NC(=O)C(C)C)c1C(=O)O
 : -15.3	6.0	4.7	1.1	-8.7	4729	9.2
> CCOc1ccccc1C(=O)N1CCN=C1SCc1cccnc1
 : 7.8	-5.2	.	.	-3.4	2952	-1.6
> COC(=O)[C@]1(CC(C)C)N[C@H](c2ccc(-c3ccc(Cl)c(Cl)c3)cc2)[C@@H]2C(=O)N(C)C(=O)[C@@H]21
 : -25.4	.	.	.	.	3662	-2.5
> CCN1CCN(C(C(=O)NC2CCCC2)c2cc3c(cc2[N+](=O)[O-])OCO3)CC1 (stereo not drawn)
 : -15.6	2.3	3.7	5.2	2.7	4494	.
> Cc1ccc2nc(C)cc(C(=O)OCC(=O)Nc3c(C)n(C)n(-c4ccccc4)c3=O)c2c1
 : -3.6	2.1	13.1	7.6	7.2	4330	-0.3
> O=C(CN(Cc1ccc(F)cc1)C(=O)CCC(=O)Nc1ccccn1)NCCc1ccccc1
 : -27.0	7.2	2.9	9.6	7.0	3721	-16.7
> CSc1nc2ccc3nc(NC(=O)c4ccc(C)cc4)sc3c2s1
 : -26.1	14.3	6.0	3.8	-6.5	5630	1.8

Further results.
Fields – PrP 5UTR inh	ugtP null kill	Mtb hypoxia inh	Mtb hypoxia inh growth	RN4220 kill	Bead autofluor	BJeLR viability
> COc1cc(NC(=O)COC(=O)c2cc(S(=O)(=O)N3CCCCC3)ccc2Cl)c(C)cc1[N+](=O)[O-]
 : -8.9	8.5	3.7	6.1	6.9	6939	15.4
> CC(=O)c1c(C)[nH]c(C(=O)NCc2ccccc2F)c1C
 : -25.3	8.4	9.5	11.6	3.1	3631	-3.0
> COc1ccc(CN2[C@@H](CC(C)=O)c3cc(C(F)(F)F)ccc3S2(=O)=O)cc1
 : -7.3	.	.	.	.	3118	3.4
> Cc1cc(C(=O)Cn2nnc3ccccc3c2=O)c(C)n1Cc1cccs1
 : -25.2	8.3	-2.0	-6.6	3.4	3310	-6.0
> Cc1cccc(-n2ccnc2SCC(=O)Nc2nccs2)c1C
 : -14.4	0.6	.	.	5.5	4776	-0.5
> CN(C)c1ccc(NC(=O)c2ccc3c(c2)nnn3C)cc1
 : -42.5	15.6	5.3	7.6	1.3	2129	0.6
> COc1ccc(C2/C=C\CN(C(=O)c3ccccc3)[C@H](Cc3ccccc3)C(=O)N2Cc2ccc(F)cc2)cc1 (stereo partly drawn)
 : -8.8	.	.	.	.	3562	-8.7
> O=C(NC1CC1)C1CCN(c2nc3ccccc3s2)CC1
 : -35.5	.	.	.	.	3496	-11.0
> CCCCN(C)CCCNC(=O)c1cccc(N2CCCC2=O)c1
 : -6.8	10.3	.	.	-0.3	3540	-6.0
> CCNS(=O)(=O)c1c(C)cc(N2CCCC2=O)cc1C
 : 3.4	5.5	.	.	-3.2	4198	-2.6
> CC1Nc2ccc(C(=O)NC3CCCCC3)cc2NC1=O (stereo not drawn)
 : -14.9	-0.4	-9.4	4.1	3.5	10055	4.7
> O=Cc1cccc(OC(=O)Nc2ccccc2)c1
 : .	2.5	4.9	-6.0	0.8	5595	1.5
> c1nc(N2CCOCC2)c2[nH]cnc2n1
 : -18.1	4.3	.	.	6.3	2732	1.0
> Cc1ccc2c(c1)C1C=CCC1C(C(=O)NCCCN1CCOCC1)N2 (stereo not drawn)
 : -12.3	2.7	21.3	10.9	1.2	2876	-5.2
> COc1ccc(O)c(/C=N/NC(=S)Nc2cccnc2)c1
 : -18.8	.	.	.	.	6174	-23.3
> Cc1nnc(SCCn2c(N3CCN(Cc4ccccc4)CC3)nc3c2c(=O)[nH]c(=O)n3C)s1
 : -15.5	6.2	-5.5	3.6	6.5	?	-7.6
> Cc1cc(Br)ccc1SCC(=O)OCC(=O)Nc1ccccc1C#N
 : -7.6	3.0	8.9	1.7	6.4	2545	-3.0
> O=C(COC(=O)c1ccc(OC(F)F)cc1)NCCC1=CCCCC1
 : -15.6	0.5	4.7	-1.3	2.0	8631	.
> CC(Sc1nnnn1C)C(=O)Nc1ncc(Cl)cc1Cl (stereo not drawn)
 : -20.8	5.6	1.0	3.9	5.1	3081	.

Retrieved by compound from the entries so far:
Fields – PrP 5UTR inh	ugtP null kill	Mtb hypoxia inh	Mtb hypoxia inh growth	RN4220 kill	Bead autofluor	BJeLR viability
> Cc1ccc2nc(C)cc(C(=O)OCC(=O)Nc3c(C)n(C)n(-c4ccccc4)c3=O)c2c1
 : -3.6	2.1	13.1	7.6	7.2	4330	-0.3
> O=C(CN(Cc1ccc(F)cc1)C(=O)CCC(=O)Nc1ccccn1)NCCc1ccccc1
 : -27.0	7.2	2.9	9.6	7.0	3721	-16.7

Compound activity (PubChem BioAssay)
